miR-21 FLuc = miR-21 reporter, rising signal; HeLa miR-21 FLuc reporter, luciferase, 48 h; Potency, µM (series often up to 38.3 µM), without a hit: at the top dose reporter change, positive = more light; 340,000 tested, under 10 active; AID 2288; active = well fitted rising curve with a large enough effect; inconclusive = small, poorly fitted or top-dose-only effect; inactive = no such curve, though single readings can be large or run the other way;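 note: % of control where 0% means no effect; miR-21 action dims this reporter so a rising signal means less miR-21 action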
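HeLa miR-21-FLuc reporter line, endogenous miR-21; 2000 cells/well in DMEM/10% FBS; compound titration up to ~40uM final, 48 h, 37 degree Celsius; luciferase detection reagent, 15 min lysis, CCD luminescence.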
Active calls of the source: *; ? = inconclusive. Not all compounds are listed; the hit share may differ from the screen's.

SMILES | miR-21 FLuc
COc1ccc(S(=O)(=O)N(CCc2ccccc2)CC(=O)Nc2cc(C)ccc2C)cc1 | 19.1%
O=C(c1ccc2c(c1)N(Cc1ccc(Cl)cc1)C(=O)c1ccccc1S2=O)N1CCN(c2ccccc2F)CC1 (stereo not drawn) | 12.6%
CC(C)COc1ccc(C(=O)N(Cc2cccc(F)c2)C2CCS(=O)(=O)C2)cc1 (stereo not drawn) | -1.3%
COc1cccc(NS(=O)(=O)c2ccc3[nH]cc(C(=O)NCCc4ccc(C)cc4)c(=O)c3c2)c1 | 9.3%
Cc1ccc(CNC(=O)c2nc(-c3ccc(Cl)cc3)n3c2CCCCC3)cc1 | 11.2%
CCOc1ccc(CCn2c3c(c(=O)[nH]c2=O)C(NC(=O)c2cccc(F)c2)(C(F)(F)F)C(=O)N3)cc1OCC (stereo not drawn) | -6.7%
O=C(Nc1noc2ccccc12)c1c(F)cccc1F | -13.2%
CCn1c(=O)c2sccc2n2c(CCC(=O)NCc3ccc(Cl)cc3)nnc12 | 10.1%
COCCCNC(=O)CCCn1c(=O)c2cccn2c2ccccc21 | 4.6%
Cc1ccc2c(=O)cc(C(=O)Nc3sc4c(c3C(=O)NCc3ccco3)CCC4)oc2c1C | 3.1%
O=C(Nc1nc2ccc(F)cc2s1)c1nc(S(=O)(=O)Cc2ccccc2)ncc1Cl | ?
COc1cc(-c2noc(-c3cc4cccc(C)c4oc3=O)n2)cc(OC)c1OC | 1.8%
CCOc1ccccc1NC(=O)c1c(NC(=O)Cc2ccc(OC)cc2)sc2c1CCC2 | -0.5%
COc1ccc(CNC(=O)c2ccc(N3CCCC3)c(NC(=O)NCc3ccc(C)cc3)c2)cc1 | 2.0%
CCN(C(=O)c1cn(CC)c(=O)c2cc(OC)c(OC)cc12)c1ccccc1F | -1.2%
CC(C)Cn1c(=O)c2sccc2n2c(CCCC(=O)Nc3ccc(Cl)cc3)nnc12 | -2.3%
Cc1cc(C)cc(N2CCn3c2nc2c3c(=O)n(CCCc3ccccc3)c(=O)n2C)c1 | -3.1%
O=C(NCCc1ccc(Cl)cc1)c1cnc2sc(N3CCOCC3)nn2c1=O | -1.5%
CCCCC(=O)Nc1ccc(OCc2cc(=O)n3ccc(C)cc3n2)cc1 | 0.9%
Cc1ccc(N2CC(c3nc(-c4ccc(Cl)cc4)no3)CC2=O)cc1F (stereo not drawn) | -0.2%

A second format for part of the listing above.
Structure,miR-21 FLuc
COc1cc(-c2noc(-c3cc4cccc(C)c4oc3=O)n2)cc(OC)c1OC,1.8%
CCOc1ccccc1NC(=O)c1c(NC(=O)Cc2ccc(OC)cc2)sc2c1CCC2,-0.5%
COc1ccc(CNC(=O)c2ccc(N3CCCC3)c(NC(=O)NCc3ccc(C)cc3)c2)cc1,2.0%
CCN(C(=O)c1cn(CC)c(=O)c2cc(OC)c(OC)cc12)c1ccccc1F,-1.2%

(further entries)
SMILES | miR-21 FLuc
CCc1ccc(NC(=O)CSC2=Nc3ccccc3C3=NC(CC(=O)NCc4ccc5c(c4)OCO5)C(=O)N23)cc1 (stereo not drawn) | -8.8%
CCN(c1ccc(C)cc1)S(=O)(=O)c1nnc(NC(=O)C2CCCCC2)s1 | -59.3%
Cc1ccc(C(=O)Nc2ccc(-c3nc4ccccc4s3)cc2C)cc1C | -34.7%
CCOC(=O)CC(NC(=O)CCc1c(C)nc2c(-c3ccccc3)c(C)nn2c1C)c1ccc(OC(C)C)cc1 (stereo not drawn) | 18.0%
COc1ccc(C)cc1NC(=O)N1CCC(CN2CCOCC2)CC1 | 0.8%
CCN(CC)c1ccc(-c2nc(-c3ccco3)no2)cc1[N+](=O)[O-] | 0.4%
Cc1onc(-c2ccc(F)cc2F)c1C(=O)Nc1cccc(C(F)(F)F)c1 | 5.1%
CSc1nnc(NC(=O)c2cc(=O)c3cc(C)c(C)cc3o2)s1 | 0.6%
COc1ccc(CNC(=O)Nc2cn(CC(C)C)c(=O)c3ccccc23)c(OC)c1 | -5.9%
CC(C)CCNC(=O)c1ccc2c(c1)NC(=O)C(C(C)C)N2 (stereo not drawn) | 3.9%
Cc1ccc(-n2nc3c(=O)n(C(C)C(=O)NCc4ccc(OC(C)C)cc4)nc(C)c3c2C)cc1 (stereo not drawn) | ?
CCc1nc2ccccc2n2c(-c3ccccc3)c3c(=O)n(C)c(=O)n(C)c3c12 | -3.6%
CC(C)c1ccc(C2=CC(c3cccc(Cl)c3)n3ncnc3N2)cc1 (stereo not drawn) | -4.8%
COc1ccc(NC(=O)c2cc3c(=O)n(C)c4cc(Cl)ccc4c3s2)cc1Cl | -0.1%
Cc1cc(C)cc(OCC(=O)Nc2nc(-c3ccc(F)cc3)ns2)c1 | 7.1%
O=C(CSc1nc(-c2cccc(F)c2)[nH]c1-c1ccccc1)Nc1ccc2c(c1)OCO2 | ?
Cc1ccc(C(=O)CSc2nc(-c3ccccc3)nc3c2CCCC3)cc1C | -1.9%
COc1ccc(-c2nc3ccccc3n2Cc2ccc(Cl)cc2)cc1 | -8.0%
Cc1ccc(N2CCn3c2nc2c3c(=O)n(CCc3ccccc3)c(=O)n2C)cc1C | 3.6%
Cc1cc(C)cc(N(CC(=O)NCCc2ccc(Cl)cc2)S(=O)(=O)c2c(C)noc2C)c1 | -1.3%

Taken from the listing for reference:
SMILES | miR-21 FLuc
Cc1ccc(-n2nc3c(=O)n(C(C)C(=O)NCc4ccc(OC(C)C)cc4)nc(C)c3c2C)cc1 (stereo not drawn) | ?
CCc1nc2ccccc2n2c(-c3ccccc3)c3c(=O)n(C)c(=O)n(C)c3c12 | -3.6%
CC(C)c1ccc(C2=CC(c3cccc(Cl)c3)n3ncnc3N2)cc1 (stereo not drawn) | -4.8%
COc1ccc(NC(=O)c2cc3c(=O)n(C)c4cc(Cl)ccc4c3s2)cc1Cl | -0.1%

The results go on:
SMILES | miR-21 FLuc
COc1ccc(C(=O)Nc2ccc(-c3cc4ccccc4oc3=O)c(C)c2)cc1OC | 28.8%
Cc1oc(-c2ccccc2F)nc1CS(=O)(=O)CC(=O)N1CCN(c2ccc(Cl)cc2)CC1 | ?
CCCCn1cnc2cc(NC(=O)c3cc(OC)c(OC)c(OC)c3)ccc21 | -1.1%
CCc1nnc(SCc2ccc(OC)cc2)c2cc3sc(C)cc3n12 | 0.0%
COc1cc(SC)ccc1C(=O)Nc1ccc(S(=O)(=O)Nc2nccc(C)n2)cc1 | -31.4%
CCOc1ccc2nc(N3CCCC(C(=O)NCCc4ccc(C)cc4)C3)sc2c1 (stereo not drawn) | 3.6%
CC(C)(C)C1CCc2c(sc(NC(=O)c3cccc(Cl)c3)c2C(N)=O)C1 (stereo not drawn) | -5.7%
COCc1cc(C)nc2sc3c(c12)NC(c1ccccc1C(=O)O)N(c1cccc(C(F)(F)F)c1)C3=O (stereo not drawn) | 2.3%
CCOC(=O)c1ccccc1NC(=O)N1CC(C)Oc2ccc(C)cc21 (stereo not drawn) | -2.8%
CC1(C)N=C(SCc2ccccc2Cl)c2ccccc2N1 | 6.5%
Cn1c(=O)oc2cc(S(=O)(=O)N3CCC(C(=O)Nc4ccc(F)c(Cl)c4)CC3)ccc21 | ?
COc1ccc(C2C(C(=O)Nc3cccnc3)=C(C)Nc3nc(-c4ccccc4)nn32)cc1OC (stereo not drawn) | -8.4%
CCc1ccc(-n2nc(C)c3c(C(=O)N4CCN(c5ccccc5)CC4)cc(C)nc32)cc1 | -1.9%
COc1ccccc1CCNC(=O)Cc1c(C)c2c(O)cc(C)cc2oc1=O | -24.7%
CSc1cccc(NC(=O)C(c2ccccc2)N2Cc3ccccc3C2=O)c1 (stereo not drawn) | 4.0%
CCCNC(=O)C1CCN(S(=O)(=O)c2ccc3c(c2)CCCN3C(C)=O)CC1 | -1.0%
CC(=O)N1CCc2c(sc3c2c(=O)n(-c2cc(Cl)ccc2C)c(=O)n3Cc2ccccc2F)C1 | ?
CCOc1ccc(C(=O)c2oc3ccccc3c2NC(=O)Cc2coc3ccc(CC)cc23)cc1 | -6.9%
O=C(Nc1cccc(C(F)(F)F)c1)c1cccc(C(=O)Nc2cccc(C(F)(F)F)c2)c1 | 1.1%
CCOc1ccc(NC(=O)C2CCN(S(=O)(=O)c3c(C)noc3/C=C/c3ccco3)CC2)cc1 | 4.0%
Cc1ccc2c(c1)c(=O)c1ccccc1n2CCCC(=O)Nc1ccc(F)cc1F | -0.7%
COc1ccccc1CNC(=O)C1CCN(S(=O)(=O)Cc2ccccc2)CC1 | -5.8%
Cc1ccc(C)c(N2CCN(C(=O)C3CCCN(S(=O)(=O)c4cccc5nsnc45)C3)CC2)c1 (stereo not drawn) | -2.7%
Cc1ccc([N+](=O)[O-])cc1NC(=O)CN(c1ccccc1)S(=O)(=O)N(C)C | -0.8%
COc1ccc(S(=O)(=O)N2CCN(Cc3ccc4c(c3)OCO4)CC2)cc1OC | -10.1%
CCOC(=O)c1noc2nc(C)n(CC(=O)Nc3ccc(Br)cc3C)c(=O)c12 | 10.9%
COc1ccc2nc(N3CCN(C(=O)C4CC4)CC3)sc2c1 | -41.1%
Cc1c(Cl)cccc1NC(=O)CSc1nc(=O)n(Cc2ccccn2)c2c1CCC2 | 5.9%
CCc1ccc(-n2nnc(-c3nc(-c4ccc(C)cc4)no3)c2N)cc1 | -11.9%
O=C(Cn1cc(SCc2ccc(C(F)(F)F)cc2)c2ccccc21)N1CCOCC1 | -20.5%
O=C(NCc1ccc2c(c1)CCN2C(=O)c1ccccc1)c1ccc(Br)o1 | 23.6%
CCc1ccc(CNC(=O)c2c3c(nc4ccccc24)C(=O)N(C2CCCCC2)C3)cc1 | 10.6%
Cc1ccc(C(=O)Nc2nc3nc(C)cc(=O)n3[nH]2)cc1 | -3.1%
COc1ccc(C(=O)Nc2ccc(-c3cc(C(F)(F)F)nn3-c3ccccc3)cc2)cc1OC | 29.4%
O=C(CNS(=O)(=O)c1cccs1)N1CCN(c2cccc(C(F)(F)F)c2)CC1 | 7.7%
COC(=O)c1ccc(C2C=C(c3ccc(Cl)cc3)Nc3nc4ccccc4n32)cc1 (stereo not drawn) | -17.0%
COC(=O)c1ccccc1NC(=O)c1cc2nc(-c3ccc(OC)cc3)cc(C(F)(F)F)n2n1 | 4.6%
Cc1nc(-n2nc(C)c(Cc3ccc(Cl)cc3)c2C)sc1C(=O)N1CCCCC1C (stereo not drawn) | -3.8%
CC(=O)C1=C(c2ccc(F)cc2)N(C(C)=O)n2c(nnc2C2CCCCC2)S1 | 4.2%
COc1cc(NC(=O)CSc2ncc3c(n2)-c2ccc(Cl)cc2N(Cc2ccccc2)S3(=O)=O)cc(OC)c1 | 0.0%
COc1ccc(-c2nn(-c3cccc(F)c3)c3c2cnc2cc(OC)c(OC)cc23)cc1 | -8.7%
CCCN1CCc2nc(N3CCN(c4ncccn4)CC3)ncc2C1 | -8.8%
CC1=C(c2ccc(C)cc2)S(=O)(=O)NC1=NCCCN1CCN(c2cc(C)ccc2C)CC1 | ?
Cc1cc(=O)oc2c3c(ccc12)OCN(Cc1ccc(Cl)cc1)C3 | -9.2%
Cc1cc(C)n(CC(=O)Nc2ccc(F)c(F)c2)c(=O)c1C#N | 1.3%
CCOC(=O)C(CC)Sc1nnc2[nH]c(=O)cc(C)n12 (stereo not drawn) | -0.1%
Cc1ccc(-n2nc3c(N4CCC(C(=O)NCCC(C)C)CC4)nnc(C)c3c2C)cc1 | -0.5%
CC(C)c1ccc(NC(=O)N2c3ccccc3Sc3ccccc32)cc1 | -17.1%
O=C(CC1N=C2c3ccccc3N=C(SCc3ccc(F)cc3)N2C1=O)NCc1ccc2c(c1)OCO2 (stereo not drawn) | 4.4%
CCCCC(=O)Nc1cc(-c2cn3cccnc3n2)ccc1C | -1.1%

(more compounds)
SMILES | miR-21 FLuc
Cc1cc(C)c2c(=O)cc(C(=O)Nc3ccc(C)c(Cl)c3)oc2c1 | 3.3%
CCc1ccc(CN(C(=O)c2cc(=O)c3ccc(C)cc3o2)C2CCS(=O)(=O)C2)cc1 (stereo not drawn) | -11.8%
O=C(Cn1c(-c2cccs2)cc2ccccc21)NCCCN1CCN(c2cccc(Cl)c2)CC1 | 16.2%
CN1CCN(c2ccc(-c3nc(-c4ccccc4)no3)cc2[N+](=O)[O-])CC1 | 24.2%
COc1ccc2oc(-c3ccc(C)c(NC(=O)c4cccnc4)c3)nc2c1 | -15.7%
O=C1CC(c2nc(-c3ccccc3)no2)CN1c1ccccc1 (stereo not drawn) | -14.7%
Cc1ccc(S(=O)(=O)N2CCC(c3ccncc3)CC2)c(C)c1 | 28.3%
CCOc1cccc2sc(NC(=O)c3ccc(S(=O)(=O)N4CCCc5ccccc54)cc3)nc12 | 2.2%
Cc1ccc(NC(=O)Cn2nc(-c3ccccc3)nc(Cc3ccccc3)c2=O)cc1 | -2.3%
CCOC(=O)c1cccc(NC(=O)N2CC=C(c3c[nH]c4ccccc34)CC2)c1 | 11.7%
COc1cc(CNC(=O)c2sc3ncccc3c2-n2cccc2)cc(OC)c1OC | ?
O=C(Nc1cccc(C(F)(F)F)c1)c1cc(-c2ccc(Cl)cc2)on1 | -26.4%
CCOC(=O)c1cccc(NC(=O)C(Cc2ccccc2)NS(=O)(=O)c2cccc3nsnc23)c1 (stereo not drawn) | ?
CCOC(=O)C1=C(C)NC(=O)NC1c1cn(-c2ccccc2)nc1-c1ccc(OC(C)C)cc1 (stereo not drawn) | 16.4%
Cc1ccc(NC(=O)NCc2cccn2Cc2ccccc2)c(C)c1 | -4.8%
Cn1c(=O)n(C)c2cc(NS(=O)(=O)c3ccc(F)cc3)c(NCc3ccccc3)cc21 | -64.0%
CCOC(=O)c1c(C)oc2ccc(N(C(=O)Oc3ccccc3)S(=O)(=O)c3ccccc3)cc12 | -4.4%
CC(C)(C)c1ccc(-c2nc(SCCOc3ccc(Cl)cc3)n3[nH]c(=O)cc3n2)cc1 | -5.5%

Part of the list above in order of length of the SMILES, descending:
SMILES | miR-21 FLuc
COc1cc(CNC(=O)c2sc3ncccc3c2-n2cccc2)cc(OC)c1OC | ?
Cc1cc(C)cc(OCC(=O)Nc2nc(-c3ccc(F)cc3)ns2)c1 | 7.1%
COCCCNC(=O)CCCn1c(=O)c2cccn2c2ccccc21 | 4.6%

High-throughput results: PubChem, National Center for Advancing Translational Sciences (NCATS)
